# High-throughput results from PubChem BioAssay.
# V. cholerae motility = Vibrio cholerae motility inhibitors, OD read-out (AID 588778) | Vibrio cholerae motility, OD read-out; higher % means a stronger effect; test concentration not given here; primary cut-off and reference of the scale not given here; strong numbers were not always called active | one-dose inhibition, %; IC50 in µg/mL for titrated hits | 10,000 tested, under 10 active; in the data active = confirmed in a dose series
# V. cholerae motility viability = further read-out of V. cholerae motility, marked with its call; inhibition, %; measured here: bacterial viability at 10 ug/mL;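 higher means fewer living bacteria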
# * hit, by the source's call. Not all compounds are listed, so the mix of outcomes need not match the whole.
# Results follow in this order: V. cholerae motility | V. cholerae motility viability
1) CC(C)c1ccc(C(=O)NC(=S)Nc2c(F)cc(F)cc2Br)cc1
→ -2.9% | -4.7
2) COc1ccc(NNC(=O)C(O)(c2ccccc2C)c2ccccc2C)cc1
→ 10.6% | 1.6
3) CC(Oc1ccc(Cl)cc1Cl)C(=O)Oc1ccccc1[N+](=O)[O-] (centres undefined)
→ 7.9% | -4.0
4) c1ccc(SCc2nc(-c3ccncc3)no2)cc1
→ 5.4% | -0.4
5) Cn1c(=O)n(C)c2cc(/C=C(\C#N)C(N)=S)ccc21
→ 5.5% | -1.7
6) Cc1ccc2c(c1)C1CN(C)CCC1N2 (centres undefined)
→ 39.8% | 1.6
7) CC(C)(C)SCCNC(=O)c1ccc(-c2ccccc2)cc1
→ 9.7% | 29.5
8) COc1cc(C(=O)NC2(C(F)(F)F)C(=O)N(CC3CCCO3)C3=C2C(=O)CC(C)(C)C3)cc(OC)c1OC (centres undefined)
→ 2.5% | -5.4
9) Cc1ccccc1SCCNC(=O)c1ccccc1Br
→ 11.4% | 3.9
10) CCOC(=O)c1cc2cccc(OC)c2o1
→ -13.7% | -2.3
11) CCOC(=O)Cc1csc(CC(N)=O)n1
→ -0.1% | -6.1
12) COc1cc(CNC2C3CC4CC(C3)CC2C4)cc(Br)c1OCc1cccs1 (centres undefined)
→ 4.1% | -4.5
13) C=CCn1c(CCCOc2ccc(Cl)cc2Cl)n[nH]c1=S
→ 25.6% | 3.8
14) CC(=O)c1c(O)cc(C)n(Cc2ccccc2)c1=O
→ 13.1% | 7.9
15) CC1CN=C(NCCc2ccccc2)S1 (centres undefined)
→ -7.8% | 1.0
16) Cc1cccc(Nc2ncnc(N)n2)c1
→ -4.3% | 0.8
17) CCOc1ccc(C(=O)Nc2ccc(N3CCN(S(C)(=O)=O)CC3)cc2)cc1[N+](=O)[O-]
→ 2.8% | -4.2
18) CN(C)S(=O)(=O)c1ccc2[nH]cc(CCN)c2c1
→ 2.6% | -2.6
19) COc1ccc(-c2nnc(NC(=O)CSc3ccc(Cl)cc3)s2)cc1OC
→ 5.2% | -8.7
20) CCOC(=O)C(=O)Nc1ccc(S(=O)(=O)N(C)C)cc1
→ 1.5% | 0.5
21) O=C(CCCCc1cccs1)Nc1ccc(C(F)(F)F)cc1
→ -1.2% | -5.1
22) O=C(C1CCCN(C(=S)NC2CC2)C1)N1CCCC1 (centres undefined)
→ -4.0% | 6.0
23) CCOC(=O)C(C)Oc1ccc(C#N)cc1OCC (centres undefined)
→ 13.3% | 5.2
24) C(=C\c1ccccc1)/CSc1nc2ccccc2o1
→ -18.3% | -10.1
25) O=C1CC(=O)N(c2ccc3c(c2)OCO3)C(=O)N1
→ 15.8% | 1.0
26) COc1ccc(Cl)cc1C(=O)NC(=S)Nc1ccc2c(c1)C(=O)N(C)C2=O
→ 9.7% | -0.2
27) Cc1ccc2nc(-c3ccc(NC4=NS(=O)(=O)c5ccccc54)cc3)sc2c1
→ -0.4% | -8.5
28) O=C(Cc1cccs1)Nc1ccc(Br)cc1Cl
→ -23.8% | -9.7
29) Cc1ncc2ccccn12
→ 21.5% | 15.8
30) COc1ccc(-c2csc3ncnc(SCc4c(C)noc4C)c23)cc1
→ 24.7% | 4.7
31) COc1ccc2c(c1OC)C(=O)N(c1ncn[nH]1)C2
→ -2.9% | -2.8
32) O=C(CSCc1ccc([N+](=O)[O-])cc1)Nc1ccccc1C(F)(F)F
→ 10.0% | 20.4
33) O=C(NCc1cccc(Cl)c1)c1ccc(COc2c(F)c(F)cc(F)c2F)cc1
→ 12.5% | 29.8
34) Cc1cc(C(=O)N2CCN(c3ncccn3)CC2)cs1
→ -4.3% | -4.2
35) O=C(N/C(=C\c1ccc(-c2ccc(F)cc2)o1)C(=O)N1CCOCC1)c1ccccc1
→ 8.6% | -0.1
36) Cc1ccc(S(=O)(=O)N2CCN(S(=O)(=O)N3CCOCC3)CC2)cc1
→ 14.5% | -1.4
37) O=C(Nc1ccc(Cl)cc1Cl)N1CCCc2ccccc21
→ 15.9% | 11.7
38) CCc1sc(NS(=O)(=O)Cc2ccccc2)nc1-c1ccccc1
→ -2.4% | -5.0
39) Cc1ccc(OCC(=O)Nc2ccc3c(c2)Cc2ccccc2-3)c(C)c1
→ -7.3% | -2.3
40) O=C(NCc1ccco1)C1CC(=O)N(c2ccc(F)cc2)C1 (centres undefined)
→ 4.4% | 2.6

# Given in transposed form: part of the list above
[18] CN(C)S(=O)(=O)c1ccc2[nH]cc(CCN)c2c1
[19] COc1ccc(-c2nnc(NC(=O)CSc3ccc(Cl)cc3)s2)cc1OC
[20] CCOC(=O)C(=O)Nc1ccc(S(=O)(=O)N(C)C)cc1
[21] O=C(CCCCc1cccs1)Nc1ccc(C(F)(F)F)cc1
[22] O=C(C1CCCN(C(=S)NC2CC2)C1)N1CCCC1 (centres undefined)
[23] CCOC(=O)C(C)Oc1ccc(C#N)cc1OCC (centres undefined)
[24] C(=C\c1ccccc1)/CSc1nc2ccccc2o1
[25] O=C1CC(=O)N(c2ccc3c(c2)OCO3)C(=O)N1
[26] COc1ccc(Cl)cc1C(=O)NC(=S)Nc1ccc2c(c1)C(=O)N(C)C2=O
[27] Cc1ccc2nc(-c3ccc(NC4=NS(=O)(=O)c5ccccc54)cc3)sc2c1
[28] O=C(Cc1cccs1)Nc1ccc(Br)cc1Cl
[29] Cc1ncc2ccccn12

entry no.	18	19	20	21	22	23	24	25	26	27	28	29
V. cholerae motility	2.6%	5.2%	1.5%	-1.2%	-4.0%	13.3%	-18.3%	15.8%	9.7%	-0.4%	-23.8%	21.5%
V. cholerae motility viability	-2.6	-8.7	0.5	-5.1	6.0	5.2	-10.1	1.0	-0.2	-8.5	-9.7	15.8

[30] COc1ccc(-c2csc3ncnc(SCc4c(C)noc4C)c23)cc1
[31] COc1ccc2c(c1OC)C(=O)N(c1ncn[nH]1)C2
[32] O=C(CSCc1ccc([N+](=O)[O-])cc1)Nc1ccccc1C(F)(F)F
[33] O=C(NCc1cccc(Cl)c1)c1ccc(COc2c(F)c(F)cc(F)c2F)cc1
[34] Cc1cc(C(=O)N2CCN(c3ncccn3)CC2)cs1
[35] O=C(N/C(=C\c1ccc(-c2ccc(F)cc2)o1)C(=O)N1CCOCC1)c1ccccc1
[36] Cc1ccc(S(=O)(=O)N2CCN(S(=O)(=O)N3CCOCC3)CC2)cc1
[37] O=C(Nc1ccc(Cl)cc1Cl)N1CCCc2ccccc21

entry no.	30	31	32	33	34	35	36	37
V. cholerae motility	24.7%	-2.9%	10.0%	12.5%	-4.3%	8.6%	14.5%	15.9%
V. cholerae motility viability	4.7	-2.8	20.4	29.8	-4.2	-0.1	-1.4	11.7

# New compounds follow.
# Results follow in this order: V. cholerae motility | V. cholerae motility viability
41) CC(=O)c1cc(Cl)ccc1OC(=O)c1ccc([N+](=O)[O-])cc1
→ 12.7% | -3.0
42) COc1ccc2[nH]c3c(c2c1)CCn1c-3nc2sc(C(=O)Nc3ccccc3)c(C)c2c1=O
→ -31.4% | -8.6
43) CC(C)(C)OC(=O)CCN1CCC(C(N)=O)CC1
→ 7.9% | -1.1
44) O=S(=O)(c1ccc(Cl)cc1)N1CCN(CC(O)Cn2c3ccccc3c3ccccc32)CC1 (centres undefined)
→ -5.0% | -3.1
45) O=C1CN=C(c2ccc(F)cc2)c2oc3ccccc3c2N1
→ -16.0% | -4.5
46) CSc1nnc(C(C)(C)C)c(=O)n1N
→ 2.1% | -0.8
47) COc1ccc(CCNCc2cc(Cl)cc(Cl)c2OC)cc1OC
→ -2.6% | 2.2
48) COc1cc(NC(=O)c2ccccc2OCC(=O)c2ccc(Br)cc2)cc(OC)c1OC
→ 5.3% | 5.7
49) O=C(CC1Sc2ncnn2C1=O)Nc1ccc(Cl)cc1 (centres undefined)
→ 1.2% | -6.3
50) N#C/C(=C/c1cc(Br)ccc1OCc1ccccc1F)C(N)=S
→ -9.2% | -6.9
51) COc1cc(Cl)cc(/C=C/c2ccc3ccccc3n2)c1OC(C)=O
→ -0.3% | 6.8
52) COc1ccc([N+](=O)[O-])cc1CSc1ccccn1
→ -1.7% | -0.8
53) O=C(Nc1nonc1NC(=O)c1ccc2c(c1)OCO2)c1ccc2c(c1)OCO2
→ -1.7% | -3.3
54) CC(C)CC(=O)N1CCN(C(=O)C2CC2)CC1
→ 13.2% | -0.3
55) Cc1cc(NC(=O)CCc2ccc(C)o2)no1
→ -7.9% | -2.3
56) CS(=O)(=O)Nn1cnc2ccccc2c1=O
→ -5.3% | -2.3
57) COc1nc(SC(C(C)=O)C(C)=O)nc(N(C)C)n1
→ 8.0% | -2.6
58) COC(=O)Nc1ccccc1NC(=O)OC
→ -14.2% | -8.1
59) CCc1ccc2nc(N/C(N)=N\S(=O)(=O)c3ccc(C)cc3)nc(C)c2c1
→ -7.2% | -2.6
60) CCN(CC)CCNCC#CCOc1ccc(OC)cc1
→ 15.4% | 3.1
61) O=C(NCc1ccccc1F)c1csc2ccccc12
→ 28.0% | 6.2
62) O=C(Nc1ccc(Cl)c(Cl)c1)Nc1ccc(Br)cc1F
→ 61.3% | 1.9
63) Cc1cc(C(F)F)n2nc(C(=O)NCc3ccccc3F)nc2n1
→ -0.2% | 7.3
64) C=CCS(=O)(=O)c1ccc([N+](=O)[O-])cc1
→ 15.4% | 3.4
65) Oc1ccccc1-c1csc(-c2ccccc2F)n1
→ -13.1% | -6.8
66) O=C(COc1ccccc1)NC(=S)Nc1ccc(I)cc1F
→ -9.7% | -8.3
67) C=CCNC(=O)CNS(=O)(=O)c1ccc(F)cc1
→ -4.8% | -1.2
68) COc1cc(/C=C(/C#N)c2ccc(Cl)cc2)c(Br)cc1O
→ 3.8% | -2.8
69) CCOC(=O)Nc1nc2ccccc2[nH]1
→ 5.2% | 1.7
70) Fc1cccc(Cl)c1CNc1ccc(CNc2ncn[nH]2)cc1
→ 0.9% | 5.8
71) Cc1ccc(NC(NC=O)C(Cl)(Cl)Cl)c(C)c1 (centres undefined)
→ 1.5% | 2.8
72) CN1C(=O)N(C(=O)c2ccccc2)C(=O)C(C)(C2=CCCCC2)C1=O (centres undefined)
→ -5.9% | -4.1
73) COc1ccc(-c2nc3ccc([N+](=O)[O-])cc3[nH]2)cc1
→ -1.3% | -2.2

# Part of the list above, screen by screen.
65	Oc1ccccc1-c1csc(-c2ccccc2F)n1
62	O=C(Nc1ccc(Cl)c(Cl)c1)Nc1ccc(Br)cc1F
72	CN1C(=O)N(C(=O)c2ccccc2)C(=O)C(C)(C2=CCCCC2)C1=O (centres undefined)
entry no.	65	62	72
V. cholerae motility	-13.1%	61.3%	-5.9%
V. cholerae motility viability	-6.8	1.9	-4.1
